Compound activity from PubChem.
Ecoli rRNA inh: reduced GFP signal of wild-type E. coli, primary screen, bacterial rRNA inhibitor project, GFP/RFP fluorescence, OD600, single point | E. coli WT GFP vs humanized-ribosome RFP mutants, 24 h; hits give low values; DMSO median 0, no signal -100 | GFP signal change (wild-type ribosome), % (test concentration not listed) | 1.6% of 350,000 active | AID 720706, 2013;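 active means significant combined selectivity score with lowered wild-type GFP, culture density cut under 30%, mutant RFP and density less affected; inactive means any of these conditions unmet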; further: one replicate is shown; some compounds called inactive have numbers as strong as hits
FGF22 binding: binders of human FGF22 protein, primary screen, FGF22 synaptogenesis inhibitor project, biophysical, thermal shift, single point | recombinant FGF22 thermal shift, SYPRO orange fluorescence; percent of sucrose octasulfate shift, DMSO zero | calls only at 9.99 µM | 1.5% of 340,000 active | AID 651658, 2012;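 active means melting point raised past a set limit in the mean and every replicate; three in four hits are not shown here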
Target sequence (Q9HCT0 whole entry, looked up): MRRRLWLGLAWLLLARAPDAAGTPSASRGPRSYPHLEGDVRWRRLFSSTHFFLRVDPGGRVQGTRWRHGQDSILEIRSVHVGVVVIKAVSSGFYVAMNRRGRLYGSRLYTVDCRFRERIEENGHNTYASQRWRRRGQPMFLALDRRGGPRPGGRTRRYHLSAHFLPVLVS
Ecoli rRNA inh OD600: recorded beside Ecoli rRNA inh, whose call it bears; OD600 change, %; measured here: OD600 growth;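 optical density of the mix in the first replicate; 0 = DMSO median and -100 = no signal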
Ecoli rRNA inh RFP: second read-out of Ecoli rRNA inh, no call of its own (marks repeat the call); RFP signal change, %; measured here: RFP humanized mutant strains;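 first replicate; 0 = DMSO median and -100 = no signal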
Active calls of the source: *; i = inactive; x = not tested or not shown; & = joins results of further samples. The list is partial; rates above refer to the full screens.

SMILES	Ecoli rRNA inh	Ecoli rRNA inh OD600	Ecoli rRNA inh RFP	FGF22 binding
CCCNC(=O)N1[C@H](C#N)[C@@H](c2ccccc2-c2ccccc2)[C@@H]1CO	4.0	-5.8	-0.7	i
O=C(C[C@@H]1C=C[C@@H](NS(=O)(=O)c2ccc(F)cc2)[C@@H](CO)O1)NC1CCC1	2.2	8.4	-3.0	i
C[C@@H]1CN([C@@H](C)CO)C(=O)Cc2cc(NC(=O)C3CC3)ccc2O[C@@H]1CN(C)C	2.3	5.4	-0.2	i
COCC(=O)N1CC2(C1)CN(Cc1cc(F)ccc1F)[C@H](CO)c1c2c2ccc(OC)cc2n1C	-2.7	-0.5	1.3	i
CN1[C@@H](CO)[C@@H]2c3ccccc3N(C(=O)Nc3ccccc3F)C[C@@H]21	2.6	0.9	-0.2	i
CNC(=O)C[C@@H]1CC[C@@H]2[C@H](COC[C@@H](O)CN2C(=O)Nc2cccc(OC)c2)O1	7.3	16.0	-0.8	i
COc1ccccc1C#Cc1ccc2c(c1)[C@H]1[C@H](CCN1C(=O)CN1CCOCC1)[C@H](CO)N2	1.6	8.3	2.5	i
Cc1cc(C(=O)Nc2cccc3c2O[C@H](CN(C)S(=O)(=O)c2cccs2)[C@@H](C)CN([C@H](C)CO)C3=O)n(C)n1	4.7	-0.1	-1.1	i
CN(C)CC#Cc1ccc([C@H]2[C@@H](CO)N(C(=O)C3CCCC3)[C@H]2C#N)cc1	0.6	-2.4	0.3	i
C[C@H]1CN([C@@H](C)CO)C(=O)c2cc(NC(=O)C3CCCCC3)ccc2O[C@H]1CN(C)Cc1ccc2c(c1)OCO2	-2.1	0.1	-2.8	i
C[C@H]1CCCCO[C@@H](CN(C)Cc2ccncc2)[C@@H](C)CN([C@@H](C)CO)C(=O)c2cc(NC(=O)C3CCCCC3)ccc2O1	-3.2	-8.3	2.1	i
C[C@@H]1CN([C@@H](C)CO)C(=O)Cc2cc(NC(=O)CCC(F)(F)F)ccc2O[C@@H]1CN(C)C(=O)NC1CCCCC1	-1.0	-3.7	-1.6	i
CCC(=O)N(C)C[C@H]1Oc2cc(C#Cc3ccccc3)ccc2S(=O)(=O)N([C@H](C)CO)C[C@H]1C	-7.1	-14.3	3.4	i
CCCNC(=O)N1CC(=O)N2[C@@H](CO)[C@H](c3ccc(-c4cccc(C)c4)cc3)[C@@H]2C1	0.9	9.6	2.5	i
CCCN(C)C[C@H]1Oc2cc(C#CC3CCCC3)ccc2S(=O)(=O)N([C@H](C)CO)C[C@@H]1C	3.9	-3.1	-0.7	i
COCC(=O)N1[C@H](C#N)[C@@H](c2ccc(C#Cc3ccccc3F)cc2)[C@H]1CO	3.5	-8.2	1.3	i
COc1ccc(S(=O)(=O)Nc2ccc3c(c2)C(=O)N([C@H](C)CO)C[C@@H](C)[C@@H](CN(C)C(=O)CCCN(C)C)OCCCC[C@H](C)O3)cc1	3.2	-1.6	-2.6	i
Cc1ccc(S(=O)(=O)Nc2cccc3c2O[C@@H](CN(C)Cc2ccc4c(c2)OCO4)[C@@H](C)CN([C@H](C)CO)C3=O)cc1	-2.1	-6.3	3.4	i
CCCC#Cc1cnc2c(c1)C(=O)N([C@H](C)CO)C[C@@H](C)[C@H](CN(C)C(=O)Nc1ccc(OC)cc1)O2	2.0	8.0	0.2	i
COc1ccc(CN(C)C[C@@H]2Oc3ccc(NS(=O)(=O)c4cccs4)cc3C(=O)N([C@@H](C)CO)C[C@H]2C)cc1	8.5	14.4	2.4	i
Cc1cccc(CN2CCN(C3CN(Cc4cn(Cc5ccc(C(F)(F)F)cc5)nn4)S(=O)(=O)C3)CC2)c1 (stereo not drawn)	-12.5	-34.9	-1.7	i
C[C@H](CO)N1C[C@H](C)[C@H](CN(C)Cc2ccc(F)cc2)Oc2ncc(C#Cc3cccnc3)cc2C1=O	-1.1	7.0	-2.2	i
C[C@@H]1CN([C@@H](C)CO)C(=O)c2ccccc2-c2ccccc2CO[C@H]1CN(C)C(=O)NC1CCCCC1	0.3	2.4	-0.5	i
CC(C)NC(=O)N[C@@H]1CC[C@H](CCNC(=O)C2CCC2)O[C@@H]1CO	3.4	10.6	-2.3	i
COc1cccc(-c2ccc(C3[C@@H]4CN(Cc5ccccn5)C[C@H]3N4)cc2)c1 (stereo partly drawn)	-5.5&-8.1	-10.2&-7.0	-0.9&1.1	i
C[C@H](CO)N1C[C@H](C)[C@H](CN(C)Cc2ccc(C(F)(F)F)cc2)Oc2c(NC(=O)c3ccncc3)cccc2C1=O	-2.3	-7.6	1.3	i
C[C@H](CO)N1C[C@H](C)[C@H](CN(C)CC2CCCCC2)Oc2c(NC(=O)C3CCCCC3)cccc2C1=O	0.8	4.2	-2.3	i
C[C@@H]1CCCCO[C@H](CN(C)Cc2ccccc2)[C@@H](C)CN([C@@H](C)CO)C(=O)c2cc(NC(=O)Nc3cccc4ccccc34)ccc2O1	1.9	15.4	-1.1	i
C[C@H](O)C#Cc1ccc2c(c1)O[C@H](CN(C)C(=O)Nc1ccccc1)[C@H](C)CN([C@H](C)CO)S2(=O)=O	0.4	3.1	-0.4	i
CCCCCCC12C(=Cc3cc4c(cc31)OCCO4)c1cc(OC)c(OC)cc1C(CC(=O)O)N2C(=O)OC (stereo not drawn)	-10.7	-13.4	-1.5	x
COc1ccccc1-c1ccc([C@H]2[C@H](CO)N(C(=O)C3CC3)C23CN(C(C)=O)C3)cc1	0.6	0.1	-1.2	i
COc1ccc2c3c([nH]c2c1)[C@@H](CO)N(C(=O)C1CCOCC1)CC31CN(Cc2cccc(F)c2)C1	-2.7	-7.7	2.2	i
C[C@@H]1CN([C@@H](C)CO)C(=O)c2cccc(N(C)C)c2O[C@@H]1CN(C)C(=O)Nc1ccc2c(c1)OCO2	-0.2	-6.1	0.2	i
CN1CCN(C(=O)C[C@H]2CC[C@H]3[C@@H](COC[C@H](O)CN3C(=O)Cc3ccccc3)O2)CC1	2.3	5.4	-2.3	i
C[C@@H]1CN([C@@H](C)CO)C(=O)c2cc(NC(=O)Nc3ccccc3)ccc2O[C@@H](C)CCCCO[C@H]1CN(C)C(=O)Cc1ccccc1	0.9	6.6	1.6	i
CCCN(C)C[C@@H]1Oc2cc(/C=C/c3ccccc3)ccc2S(=O)(=O)N([C@@H](C)CO)C[C@@H]1C	5.4	10.5	3.0	i
C[C@@H]1CCCCO[C@@H](CN(C)C)[C@@H](C)CN([C@H](C)CO)C(=O)c2cc(NC(=O)CCCCCC(=O)Nc3ccccc3N)ccc2O1	2.0	9.0	-1.8	i
CC(C)C#Cc1cnc2c(c1)C(=O)N([C@@H](C)CO)C[C@@H](C)[C@H](CN(C)C(=O)CCN1CCCCC1)O2	1.6	19.1	-3.3	i
CCCNC(=O)[C@@H]1[C@@H](CO)[C@@H]2Cn3c(ccc(/C=C/c4ccccc4)c3=O)[C@H]1N2C(=O)c1cccnc1	-1.9	-3.6	0.6	i
CN(C)C(=O)C[C@H]1CC[C@H]2[C@@H](COC[C@H](O)CN2CC2CCCCC2)O1	0.7	0.0	4.5	i
O=C(C[C@@H]1CC[C@@H]2[C@H](COC[C@H](O)CN2C(=O)Nc2ccc(Cl)cc2)O1)NCc1ccncn1	-22.1*	-6.5*	2.7*	i
CN(C)C(=O)c1cccc(-c2ccc([C@@H]3[C@@H](CO)N4C(=O)CNC[C@@H]34)cc2)c1	6.7	12.5	-0.5	i
C[C@@H](NC(=O)C[C@H]1C[C@@H]2c3cc(NC(=O)CN(C)C)ccc3O[C@@H]2[C@H](CO)O1)c1ccccc1	7.0	11.7	-0.6	i
COC(=O)C1=C(C)N(Cc2ccc(C(F)(F)F)cc2)C(=NCc2ccc(C(F)(F)F)cc2)NC1c1ccc(F)cc1 (stereo not drawn)	-55.5	-80.3	-16.5	i
CC(C)CC#Cc1ccc2c(c1)O[C@@H](CN(C)CC1CCOCC1)[C@H](C)CN([C@H](C)CO)S2(=O)=O	-17.5	-23.9	6.1	i
O=C(c1cnccn1)N1C[C@@H]2[C@H](c3ccccc31)[C@H](CO)N2Cc1ccccc1Cl	-5.4	-9.9	-2.5	i
COc1ccc(CNC(=O)C[C@H]2CC[C@H](NC(=O)Nc3ccc4c(c3)OCO4)[C@@H](CO)O2)cc1	-4.0	3.1	-0.6	i
C/C=C/c1ccc([C@H]2[C@@H](CO)N(C(=O)COC)[C@@H]2CNC(=O)CC)cc1	1.5	4.0	-2.1	i
C[C@H]1CN([C@@H](C)CO)C(=O)c2cc(NC(=O)Nc3cccc4ccccc34)ccc2O[C@H]1CN(C)Cc1ccncc1	-0.9	-4.3	0.6	i
C[C@@H]1CN([C@H](C)CO)C(=O)c2cc(NC(=O)C3CC3)ccc2O[C@H]1CN(C)S(=O)(=O)c1ccccc1	1.6	-1.6	0.3	i

Given with two lines to a compound: three of the compounds above
The line under a structure holds: Ecoli rRNA inh	Ecoli rRNA inh OD600	Ecoli rRNA inh RFP	FGF22 binding
CC(C)CC#Cc1ccc2c(c1)O[C@@H](CN(C)CC1CCOCC1)[C@H](C)CN([C@H](C)CO)S2(=O)=O
 : -17.5	-23.9	6.1	i
O=C(c1cnccn1)N1C[C@@H]2[C@H](c3ccccc31)[C@H](CO)N2Cc1ccccc1Cl
 : -5.4	-9.9	-2.5	i
COc1ccc(CNC(=O)C[C@H]2CC[C@H](NC(=O)Nc3ccc4c(c3)OCO4)[C@@H](CO)O2)cc1
 : -4.0	3.1	-0.6	i

The listing continues:
SMILES	Ecoli rRNA inh	Ecoli rRNA inh OD600	Ecoli rRNA inh RFP	FGF22 binding
CC(C)NC(=O)N(C)C[C@@H]1Oc2ncc(C#Cc3ccccc3F)cc2C(=O)N([C@H](C)CO)C[C@H]1C	2.0	8.1	-1.2	i
C[C@H](CO)N1C[C@H](C)[C@H](CN(C)C(=O)Nc2ccccc2)Oc2cc(C#C[C@@H](C)O)ccc2S1(=O)=O	0.8	3.3	-2.5	i
COc1ccc2c3c(n(C)c2c1)[C@@H](CO)NCC31CCN(C(=O)Nc2ccccc2F)CC1	-0.8	-2.4	3.0	i
C[C@@H]1CN([C@H](C)CO)C(=O)c2cc(NC(=O)C3CC3)ccc2O[C@@H]1CN(C)CC1CCCCC1	1.3	7.6	-1.6	i
COc1ccccc1C(=O)N1C[C@@H]2[C@H](c3ccccc31)[C@@H](CO)N2C(=O)Cc1ccccc1	1.7	15.6	0.7	i
CCCNC(=O)Nc1ccc2c(c1)OC[C@@H](C)N(C(C)=O)C[C@H](C)[C@@H](OC)CN(C)C2=O	-1.4	0.3	0.8	i
C[C@@H](NS(=O)(=O)c1c(F)cccc1F)c1ccccc1	-9.1	-8.8	-0.9	i
CCC(=O)N1[C@@H]2Cn3c(ccc(-c4ccccc4F)c3=O)[C@H]1[C@@H](C(=O)NC1CCCC1)[C@@H]2CO	2.1	6.2	-1.8	i
CC(=O)N1CC2(C1)[C@H](c1ccc(-c3cccc(F)c3)cc1)[C@H](CO)N2CC1CCCC1	-37.7	-65.0	29.4	i
COc1ccc(NC(=O)N(C)C[C@H]2OCCCC[C@@H](C)Oc3ccc(NC(=O)Cc4ccccc4)cc3C(=O)N([C@@H](C)CO)C[C@H]2C)cc1	-3.2	-7.6	1.9	i
COc1ccc(NC(=O)Nc2ccc3c(c2)C(=O)N([C@H](C)CO)C[C@H](C)[C@@H](CN(C)S(=O)(=O)c2cn(C)cn2)OCCCC[C@@H](C)O3)cc1	-0.3	4.5	-1.0	i
C[C@H](CO)N1C[C@H](C)[C@@H](CN(C)Cc2ccc(Cl)c(Cl)c2)Oc2c(NC(=O)Nc3ccc(F)cc3)cccc2C1=O	-0.5	-3.8	0.0	i
C[C@H](CO)N1C[C@H](C)[C@H](CN(C)C(=O)CCN(C)C)OCc2ccccc2-c2c(n(C)c3ccccc23)C1=O	1.5	13.8	-2.1	i
COc1ccc(S(=O)(=O)Nc2ccc3c(c2)[C@@H]2C[C@@H](CC(=O)N(C)C)O[C@@H](CO)[C@@H]2O3)cc1	-2.8	-17.2	-1.1	i
COc1ccc(CN2C[C@@]3(O)CC[C@@H](O)[C@@H](OC)[C@@H]3[C@@](C)(O)[C@@H]2CC=C(C)C)cc1	27.0	32.6	5.5	i
C[C@H]1CN([C@@H](C)CO)C(=O)c2cc(C3=CCCC3)cnc2O[C@H]1CN(C)C(=O)c1cccnc1	6.4	-0.9	2.0	i
C[C@@H]1CN([C@H](C)CO)C(=O)c2cc(C#CC3CCCC3)cnc2O[C@H]1CN(C)C(=O)Cc1ccccn1	-3.8	3.4	-0.2	i
C[C@H]1CN([C@@H](C)CO)C(=O)c2cc(C3=CCCC3)cnc2O[C@@H]1CN(C)C(=O)NC1CCCC1	0.2	4.8	-2.2	i
COc1ccc(CN(C)C[C@@H]2OCc3cn(nn3)CCCC(=O)N([C@H](C)CO)C[C@@H]2C)cc1	0.3	3.1	-1.5	i
COc1ccc(S(=O)(=O)Nc2cccc3c2O[C@H](CN(C)S(=O)(=O)c2cn(C)cn2)[C@H](C)CN([C@H](C)CO)C3=O)cc1	-1.1	4.6	-4.3	i

Full records, quoted from the list. Order of screens: Ecoli rRNA inh | Ecoli rRNA inh OD600 | Ecoli rRNA inh RFP | FGF22 binding
Listed for COc1ccc(CN2C[C@@]3(O)CC[C@@H](O)[C@@H](OC)[C@@H]3[C@@](C)(O)[C@@H]2CC=C(C)C)cc1 → 27.0 | 32.6 | 5.5 | i
Listed for COc1ccc(S(=O)(=O)Nc2cccc3c2O[C@H](CN(C)S(=O)(=O)c2cn(C)cn2)[C@H](C)CN([C@H](C)CO)C3=O)cc1 → -1.1 | 4.6 | -4.3 | i
